Assay outcomes: PubChem BioAssay, ICCB-Longwood Screening Facility, Harvard Medical School
Ecoli growth: E. coli growth inhibition, primary screen, OD600. Escherichia coli growth, 23 h; stronger effect = lower value. OD600 absorbance (concentration not given with the values). hit rate 0.21% among 330,000;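 active means OD600 absorbance below the run mean of sample wells minus 3.6 SD, in any replicate, cut at about 0.56 in these data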;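 further: stock transfer was 300 nL into about 60 µL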
UCH37 inh: inhibitors of human UCH37 deubiquitinase, primary screen, biochemical, Ub-AMC cleavage, fluorescence | purified proteasome/UCH37 | inhibition, % (no concentration beside the values) | hit rate 0.33% among 330,000 | AID 588478, 2011;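 active means mean of two replicates above 20%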;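 further: 0% = compound-free wells with enzyme and 100% = wells lacking proteasome; stock transfer was 100 nL into about 20 µL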
Target sequence (Q9Y5K5 whole entry, looked up): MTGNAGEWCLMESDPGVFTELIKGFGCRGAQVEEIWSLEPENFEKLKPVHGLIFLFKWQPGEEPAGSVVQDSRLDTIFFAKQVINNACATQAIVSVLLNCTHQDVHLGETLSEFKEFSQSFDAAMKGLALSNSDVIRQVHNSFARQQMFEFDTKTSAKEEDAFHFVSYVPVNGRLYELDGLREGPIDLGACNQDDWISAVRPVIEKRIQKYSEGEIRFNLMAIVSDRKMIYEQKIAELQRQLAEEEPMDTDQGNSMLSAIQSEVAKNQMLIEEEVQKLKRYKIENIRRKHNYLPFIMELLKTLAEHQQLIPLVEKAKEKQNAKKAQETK
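Material: human UCH37 enzyme supplied as purified proteasome complex. Measure: % inhibition of Ub-AMC cleavage fluorescence. Medium: pH 7.4 Tris-HCl (50 mM) with ovalbumin, ATP-MgCl2, DTT. Times: 30 min preincubation with enzyme, 25 min cleavage at room temperature. Detection: AMC fluorescence intensity at 355/460 nm.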
* marks the source's active call; other numbers are inactive results.

How did COc1cc(C=NNc2ccc([N+](=O)[O-])cc2)ccc1OCC(=O)Nc1ccc(C)c(C)c1 do in these assays?
Ecoli growth: 0.79; UCH37 inh: -1.1

What do the screens show for `CC(=NNc1ncc(Cl)cc1Cl)c1cccs1`?
Ecoli growth: 0.7; UCH37 inh: 8.5

How did O=S1(=O)N=C(N(CCO)N=Cc2ccccc2)c2ccccc21 do in these assays?
Ecoli growth: 0.65; UCH37 inh: 5.4

What do the screens show for `CC(=NNC(=O)CNC(=O)/C=C/c1ccco1)c1ccc(Cl)cc1`?
Ecoli growth: 0.69; UCH37 inh: 3.5

How did CC(=NNC(=O)CSc1nc2ccccc2n1C)c1ccncc1 do in these assays?
Ecoli growth: 0.7; UCH37 inh: 5.1

What do the screens show for `CCc1ccc(C=NNC(=O)c2cc(-c3cccc([N+](=O)[O-])c3)n[nH]2)cc1`?
Ecoli growth: 0.68; UCH37 inh: 2.6

What do the screens show for `COc1ccccc1OCC(=O)NN=C1C=C(C)CC1`?
Ecoli growth: 0.66; UCH37 inh: -1.2

How did CN1C2CCC1/C(=C\c1ccccc1Cl)C(=O)/C2=C\c1ccccc1Cl do in these assays?
Ecoli growth: 0.71; UCH37 inh: -1.4

Results for CCOc1ccc(-c2c(C(=O)NN=Cc3c[nH]c4ccccc34)nnn2-c2nonc2N)cc1 ?
Ecoli growth: 0.68; UCH37 inh: -123

How did COc1cccc(C=NN2CCN(Cc3ccccc3)CC2)c1O do in these assays?
Ecoli growth: 0.62; UCH37 inh: 5.0

Results for CCCCCC1CC(CCC(C)=NNC(N)=O)C(=O)O1 (stereo unspecified) ?
Ecoli growth: 0.66; UCH37 inh: 3.7

Results for COC1(OC)C(/C=C\c2ccc(C)cc2)C(C#N)(C#N)C1(OC)OC (stereo unspecified) ?
Ecoli growth: 0.63; UCH37 inh: 3.1

Results for C=CCc1c(C)nc(-c2ccccc2)nc1NN=Cc1ccncc1 ?
Ecoli growth: 0.7; UCH37 inh: 9.9

What do the screens show for `Cc1ccc(S(=O)(=O)NN=Cc2cnn(C)c2C)cc1`?
Ecoli growth: 0.72; UCH37 inh: -2.0

Results for CC(=O)ON=Cc1c(N2CCOCC2)n(C)c2ccccc12 ?
Ecoli growth: 0.58; UCH37 inh: 6.0

What do the screens show for `O=C(NN=Cc1ccccc1F)c1csc2c1CCCC2`?
Ecoli growth: 0.69; UCH37 inh: 0.4

Results for O=C(NN=C/C=C/c1ccc([N+](=O)[O-])cc1)c1cccs1 ?
Ecoli growth: 0.7; UCH37 inh: 5.9

How did CC(C)(C)NN=C1CC(c2ccccc2)Oc2ccccc21 (stereo unspecified) do in these assays?
Ecoli growth: 0.67; UCH37 inh: -0.9

How did Cc1ccsc1C=NNS(=O)(=O)c1ccc([N+](=O)[O-])cc1 do in these assays?
Ecoli growth: 0.66; UCH37 inh: 7.3

How did O=C(NC(C(=O)NN=Cc1ccncc1)c1n[nH]c(=O)c2ccccc12)c1ccccc1 (stereo unspecified) do in these assays?
Ecoli growth: 0.68; UCH37 inh: -0.2

How did COc1cc(C=Nn2c(-c3ccccc3)n[nH]c2=S)cc(OC)c1OC do in these assays?
Ecoli growth: 0.69; UCH37 inh: 5.5

What do the screens show for `C(=NNc1ccc2ccccc2n1)c1ccc2c(c1)OCO2`?
Ecoli growth: 0.61; UCH37 inh: -57

How did CCN1CCN(C=Nc2nc(C)cs2)CC1 do in these assays?
Ecoli growth: 0.66; UCH37 inh: 1.5

What do the screens show for `CCCNC(=O)CC(C)=NNC(=O)COc1ccc(C)cc1Br`?
Ecoli growth: 0.66; UCH37 inh: 0.7

How did COc1ccc(C=NNC(=O)c2c([N+](=O)[O-])c(C)nn2C)cc1 do in these assays?
Ecoli growth: 0.65; UCH37 inh: 5.4

How did O=S(=O)(N=C(c1ccccc1)N1CCOCC1)c1ccc(F)cc1 do in these assays?
Ecoli growth: 0.64; UCH37 inh: 3.2

Results for O=C(CON=Cc1ccccc1)Nc1c(F)c(F)c(F)c(F)c1F ?
Ecoli growth: 0.73; UCH37 inh: 2.7

How did COC(=O)c1ccccc1Sc1c(C=NOCc2ccc(Cl)cc2)c(C(F)(F)F)nn1C do in these assays?
Ecoli growth: 0.72; UCH37 inh: 4.0

What do the screens show for `Cc1ccc(C(C)C)c(OCC(=O)NN=C2CC(=O)CC(C)(C)C2)c1`?
Ecoli growth: 0.64; UCH37 inh: 4.2

Results for CC(=N/N=C1/NC(=O)C(CC(=O)O)S1)c1ccccn1 (stereo unspecified) ?
Ecoli growth: 0.65; UCH37 inh: 3.6

Part of the list above in order of count of non-hydrogen atoms, falling.
How did COc1cc(C=Nn2c(-c3ccccc3)n[nH]c2=S)cc(OC)c1OC do in these assays?
Ecoli growth: 0.69; UCH37 inh: 5.5

What do the screens show for `CCCNC(=O)CC(C)=NNC(=O)COc1ccc(C)cc1Br`?
Ecoli growth: 0.66; UCH37 inh: 0.7

How did CCN1CCN(C=Nc2nc(C)cs2)CC1 do in these assays?
Ecoli growth: 0.66; UCH37 inh: 1.5

Fetched one by one from the entries so far, 2 records:
What do the screens show for `CC(=NNC(=O)CNC(=O)/C=C/c1ccco1)c1ccc(Cl)cc1`?
Ecoli growth: 0.69; UCH37 inh: 3.5

How did CCN1CCN(C=Nc2nc(C)cs2)CC1 do in these assays?
Ecoli growth: 0.66; UCH37 inh: 1.5

A run of entries of the results above, as a working copy:
How did CCN1CCN(C=Nc2nc(C)cs2)CC1 do in these assays?
Ecoli growth: 0.66; UCH37 inh: 1.5

What do the screens show for `CCCNC(=O)CC(C)=NNC(=O)COc1ccc(C)cc1Br`?
Ecoli growth: 0.66; UCH37 inh: 0.7

How did COc1ccc(C=NNC(=O)c2c([N+](=O)[O-])c(C)nn2C)cc1 do in these assays?
Ecoli growth: 0.65; UCH37 inh: 5.4

How did O=S(=O)(N=C(c1ccccc1)N1CCOCC1)c1ccc(F)cc1 do in these assays?
Ecoli growth: 0.64; UCH37 inh: 3.2

Results for O=C(CON=Cc1ccccc1)Nc1c(F)c(F)c(F)c(F)c1F ?
Ecoli growth: 0.73; UCH37 inh: 2.7

How did COC(=O)c1ccccc1Sc1c(C=NOCc2ccc(Cl)cc2)c(C(F)(F)F)nn1C do in these assays?
Ecoli growth: 0.72; UCH37 inh: 4.0

What do the screens show for `Cc1ccc(C(C)C)c(OCC(=O)NN=C2CC(=O)CC(C)(C)C2)c1`?
Ecoli growth: 0.64; UCH37 inh: 4.2

(continued)
What do the screens show for `CC(=NNC(=O)Cn1ccc(C(F)(F)F)n1)c1ccc2c(c1)OCO2`?
Ecoli growth: 0.63; UCH37 inh: 1.0

What do the screens show for `Cc1cc(C)nc(N=C(N)C2=C(O)CC(C)(C)CC2=O)n1`?
Ecoli growth: 0.73; UCH37 inh: 5.2

How did CC(=NO)C(C)=NNC(=O)c1ccccn1 do in these assays?
Ecoli growth: 0.67; UCH37 inh: 4.2

Results for O=C(NN=Cc1c[nH]c2ccccc12)c1ccc(Cl)cc1 ?
Ecoli growth: 0.69; UCH37 inh: 0.0

How did CCc1cc(C)cc(OCCOc2ccccc2C=NNC(C)=O)c1 do in these assays?
Ecoli growth: 0.67; UCH37 inh: -1.6

Results for O=C(CN1CCCCCCC1)NN=Cc1ccc(F)cc1F ?
Ecoli growth: 0.64; UCH37 inh: 1.0

What do the screens show for `COc1cccc(C=NNC(=O)CN(C)S(=O)(=O)c2ccccc2)c1OC`?
Ecoli growth: 0.67; UCH37 inh: -6.5

How did Cc1ccccc1C(=O)NN=Cc1ccc(OCC(=O)N2CCCCC2)cc1 do in these assays?
Ecoli growth: 0.66; UCH37 inh: 1.5

What do the screens show for `CC(C)OCCCNC(=O)c1c(N)n(N=Cc2ccccn2)c2nc3ccccc3nc12`?
Ecoli growth: 0.8; UCH37 inh: -6.4

What do the screens show for `COc1cc(C=Nn2nnnc2N)ccc1O`?
Ecoli growth: 0.68; UCH37 inh: -10.0

What do the screens show for `Cc1ccc(S(=O)(=O)N=C(Sc2ccccc2)c2ccccc2)cc1`?
Ecoli growth: 0.64; UCH37 inh: 2.3

Results for CCOc1ccc(CC2S/C(=N/N=Cc3ccco3)NC2=O)cc1 (stereo unspecified) ?
Ecoli growth: 0.67; UCH37 inh: 4.1

How did COc1cccc(C=NNC(=O)CC2C(=O)NN=C2C)c1O (stereo unspecified) do in these assays?
Ecoli growth: 0.64; UCH37 inh: -3.6

Results for CC(=O)Nc1ccc(C(C)=NNS(=O)(=O)c2ccccc2)cc1 ?
Ecoli growth: 0.72; UCH37 inh: 4.7

How did CCCC1CC(C)(C(C)=NNC(N)=S)OC1=O (stereo unspecified) do in these assays?
Ecoli growth: 0.66; UCH37 inh: -3.8

How did CN(C)N=Cc1cn(-c2ccccc2)nc1-c1cccnc1 do in these assays?
Ecoli growth: 0.65; UCH37 inh: 0.5

What do the screens show for `CC(=O)NN=C(C)CC(=O)Nc1cccc2c1CCCC2`?
Ecoli growth: 0.68; UCH37 inh: 2.6

How did CCOc1cccc(-c2c(C(=O)NN=Cc3ccco3)nnn2-c2nonc2N)c1 do in these assays?
Ecoli growth: 0.72; UCH37 inh: 2.7

How did COc1ccc(OC)c(C(=O)NN=Cc2ccccn2)c1 do in these assays?
Ecoli growth: 0.64; UCH37 inh: 5.2

Results for CC(/C=C/c1ccc2c(c1)OCO2)=NNC(=O)c1cccc([N+](=O)[O-])c1 ?
Ecoli growth: 0.67; UCH37 inh: 3.4

What do the screens show for `COc1ccc(C=NNc2nnc(-c3ncc[nH]3)c3ccccc23)cc1`?
Ecoli growth: 0.77; UCH37 inh: -47

How did CC(Cc1ccccc1)=NNC(=O)c1cccnc1 do in these assays?
Ecoli growth: 0.66; UCH37 inh: 0.2

How did O=C(NN=Cc1ccco1)C1CC(=O)N(c2ccccc2)C1 (stereo unspecified) do in these assays?
Ecoli growth: 0.66; UCH37 inh: 4.9

How did C/C(C=NNC(=O)c1cnccn1)=C/c1ccccc1 do in these assays?
Ecoli growth: 0.66; UCH37 inh: 12

What do the screens show for `Cc1cc(C(=O)NN=Cc2c3ccccc3cc3ccccc23)n[nH]1`?
Ecoli growth: 0.6; UCH37 inh: -2.0

Results for Cc1ccccc1NN=Cc1ccc(N2CCOCC2)cc1 ?
Ecoli growth: 0.66; UCH37 inh: -2.5

Results for CN(Cc1c(C(=O)NN=Cc2ccccc2)nnn1-c1nonc1N)c1ccccc1 ?
Ecoli growth: 0.69; UCH37 inh: 2.2

Results for COc1cc(C=NO)ccc1Oc1ccc([N+](=O)[O-])cc1[N+](=O)[O-] ?
Ecoli growth: 0.71; UCH37 inh: 2.0

What do the screens show for `CC(=NNC(=O)c1ccc(NS(=O)(=O)c2cccs2)cc1)c1ccccc1`?
Ecoli growth: 0.66; UCH37 inh: 4.5

How did CC(C)(C)C(=O)ON=C(N)COc1cccc(Cl)c1 do in these assays?
Ecoli growth: 0.72; UCH37 inh: 4.2

How did O=C(NN=C/C(Cl)=C/c1ccccc1)c1cnccn1 do in these assays?
Ecoli growth: 0.69; UCH37 inh: 18

What do the screens show for `C[C@@H]1C[C@@H]2O[C@H]2C=CC=CC(=O)Cc2c(Cl)c(O)cc(O)c2C(=O)O1`?
Ecoli growth: 0.7; UCH37 inh: -0.6

What do the screens show for `COc1cccc(C=Nn2nnnc2N)c1`?
Ecoli growth: 0.64; UCH37 inh: -9.4

Results for CC(=NNC(=O)Cc1cccn1C)c1ccccc1 ?
Ecoli growth: 0.72; UCH37 inh: 1.6

What do the screens show for `CCOc1ccc(C(=O)NN=Cc2ccc(SC)cc2)cc1`?
Ecoli growth: 0.74; UCH37 inh: 6.5

Results for Cc1ccc(C=NNC(=O)CNC(=O)c2ccc(S(=O)(=O)N(C)C)cc2)cc1 ?
Ecoli growth: 0.71; UCH37 inh: 2.7

What do the screens show for `CC1(C)CC(=O)/C(=C(\O)Cc2ccccc2)C(=NCCc2ccccc2)C1`?
Ecoli growth: 0.65; UCH37 inh: 2.0

How did CCOc1ccc(C=NOCC(=O)Nc2ccc3c(c2)OCO3)cc1 do in these assays?
Ecoli growth: 0.66; UCH37 inh: 0.2

How did CC1Oc2ccccc2C=C1C=NNC(=O)c1ccncc1 (stereo unspecified) do in these assays?
Ecoli growth: 0.7; UCH37 inh: 4.0

Results for COc1cc(C=NNC(=O)c2ccncc2)ccc1OCCN1CCCCC1 ?
Ecoli growth: 0.69; UCH37 inh: 6.9

What do the screens show for `C=CCOc1ccc(C=NNC(C)=O)cc1OCC`?
Ecoli growth: 0.69; UCH37 inh: 5.4

What do the screens show for `CC(=NNc1nc(C)cc(-c2ccccc2)n1)c1ccc(C)o1`?
Ecoli growth: 0.71; UCH37 inh: 6.7

What do the screens show for `O=C(NN=Cc1ccc(F)cc1)c1cc[n+]([O-])cc1`?
Ecoli growth: 0.68; UCH37 inh: 6.2

Results for CCNC(=S)NN=Cc1cc(C)n(-c2ccc(Cl)cc2)c1C ?
Ecoli growth: 0.7; UCH37 inh: 1.3

What do the screens show for `CC(C)=NN=C(c1cccc([N+](=O)[O-])c1)C12CN3CN(CN(C3)C1)C2`?
Ecoli growth: 0.7; UCH37 inh: -14

What do the screens show for `COc1ccc(C(=O)NN=C2CCS(=O)(=O)c3ccc(F)cc32)cc1OC`?
Ecoli growth: 0.7; UCH37 inh: 0.0

How did CC(/C=C/c1ccc2c(c1)OCO2)=NNC(=O)COc1ccccc1C do in these assays?
Ecoli growth: 0.69; UCH37 inh: -8.0

How did NC(=NOC(=O)CCCOc1ccccc1)c1cccc([N+](=O)[O-])c1 do in these assays?
Ecoli growth: 0.63; UCH37 inh: 1.0

Results for COc1ccc(C=NN=Cc2ccc(OC)c(OC)c2)cc1OC ?
Ecoli growth: 0.71; UCH37 inh: 4.3

What do the screens show for `Cc1nnc(NN=Cc2cc(C)n(-c3ccc(F)cc3)c2C)n1N`?
Ecoli growth: 0.61; UCH37 inh: 1.4

An excerpt. The share of hits here may be higher or lower than overall.
